EPAC2 ant val: human EPAC2 antagonism, validation; actives 1.7% (n = 16,000); Q8WZA2; AID 1645886; Potency, µM (doses to about 112 µM), for the others: at the highest dose activity, negative = inhibition, actives largely listed as inhibitors; EPAC2 Rap1B BODIPY-GDP exchange, fluorescence; active = well fitted inhibition curve with a large enough effect; inconclusive = small, poorly fitted or top-dose-only effect; inactive = no such curve, though single readings can be large or run the other way;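 also: 100% = activation by cAMP agonist control; nearly all actives have a fitted effect of over 40% in size; the record reuses the description of the EPAC1 agonist screen; inactives centre near -10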
Target sequence (Q8WZA2 whole entry, looked up): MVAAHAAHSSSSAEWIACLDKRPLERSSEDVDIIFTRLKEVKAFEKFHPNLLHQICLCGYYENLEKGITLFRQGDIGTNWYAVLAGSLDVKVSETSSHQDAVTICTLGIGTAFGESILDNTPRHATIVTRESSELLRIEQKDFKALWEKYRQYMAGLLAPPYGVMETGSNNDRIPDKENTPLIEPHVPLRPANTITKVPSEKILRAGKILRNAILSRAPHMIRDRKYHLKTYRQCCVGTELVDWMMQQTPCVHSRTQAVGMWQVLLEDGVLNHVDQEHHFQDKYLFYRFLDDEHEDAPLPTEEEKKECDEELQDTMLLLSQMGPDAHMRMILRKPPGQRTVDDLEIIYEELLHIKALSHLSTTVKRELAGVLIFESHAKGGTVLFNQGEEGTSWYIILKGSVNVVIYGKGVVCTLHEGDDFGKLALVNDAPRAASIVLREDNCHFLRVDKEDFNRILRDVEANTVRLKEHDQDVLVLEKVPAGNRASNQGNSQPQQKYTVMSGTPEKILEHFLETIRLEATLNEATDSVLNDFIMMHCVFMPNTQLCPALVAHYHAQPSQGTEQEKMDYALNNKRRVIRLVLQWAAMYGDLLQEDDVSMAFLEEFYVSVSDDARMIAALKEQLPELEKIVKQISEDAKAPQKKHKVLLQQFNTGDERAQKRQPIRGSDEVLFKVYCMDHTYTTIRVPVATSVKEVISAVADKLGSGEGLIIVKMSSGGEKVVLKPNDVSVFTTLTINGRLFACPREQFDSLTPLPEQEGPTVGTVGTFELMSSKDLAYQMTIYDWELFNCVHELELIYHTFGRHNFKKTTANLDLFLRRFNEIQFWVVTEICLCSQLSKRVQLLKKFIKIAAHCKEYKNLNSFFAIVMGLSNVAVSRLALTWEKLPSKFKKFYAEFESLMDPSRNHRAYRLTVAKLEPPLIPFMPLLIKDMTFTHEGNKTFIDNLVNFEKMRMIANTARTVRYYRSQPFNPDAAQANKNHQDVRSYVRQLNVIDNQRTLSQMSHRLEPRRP
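Fluorescent exchange read-out: 100 nM EPAC2 with 250 nM RAP1B–BODIPY-GDP and 50 uM GDP; BODIPY-GDP release lowers fluorescence. Read at 480/540 nm every 5 min for 30 min at room temperature; normalized to 6.5 mM cAMP.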
* hit, by the source's call; u = inconclusive; & = joins results of further samples; ! = repeats disagree; [ ] = dose if it differs, or a comment. Potency is read from the fitted curve at half-maximal effect. This is a subset; rates above refer to the full screens.

SMILES	EPAC2 ant val
CC(=O)O[C@H]1CC[C@@]2(C)C(=CC[C@H]3[C@@H]4CC[C@H](C(C)=O)[C@@]4(C)CC[C@@H]32)C1	-16%
Cc1ccccc1-c1ccc2ncnc(-n3ccnc3)c2c1	-23%
COc1ccc(C(=O)N2CCC[C@@]3(CCN(Cc4nccs4)C3)C2)cc1	-35%
O=C(NCC1Cc2cccc(-c3cncnc3)c2O1)C1CC1 (centres undefined)	-3%
O=c1c(-c2ccc(Cl)cc2)nc2cnc(N3CCOCC3)nc2n1CCc1ccccc1	11%
C1CCN2CC3CC(CN4CCCC[C@@H]34)C2C1 (some centres undefined)	-22%
Cc1ncc2c(c1CNC(=O)c1cncs1)CCN(C(=O)c1cccc(-c3cccc(F)c3)c1)C2	-25%
CN(C)c1ccc(/C=C/c2ccnc3c(O)ccc(O)c23)cc1	20%
CN1CC[C@H](c2c(O)cc(O)c3c(=O)cc(-c4ccccc4Cl)oc23)[C@H](O)C1	0%
COc1ccc(C(=O)NCC2Cc3c(F)ccc(-c4nc(C)cnc4C)c3O2)cc1F (centres undefined)	u
COC(=O)[C@@H]1CCCN1C(=O)c1cc(NC(=O)C2CCC2)c2c(c1)nc(-c1ccncc1)n2C	3%
Cc1ccccc1-c1cncnc1NCCN1CCOCC1	-17%
COc1ccc(NC(=O)N2CC3(CCN(C(=O)c4c(C)noc4C)CC3)C2)cc1	-23%
COc1ccc(C(=O)N2CCC3(CC2)CN(C(=O)Nc2cccc(C#N)c2)C3)cc1	-16%
Cn1cccc1C(=O)N1CCC2(CCN(C(=O)Nc3cccc(C#N)c3)CC2)CC1	-22%

A few values from the results shown:
For EPAC2 ant val, Cn1cccc1C(=O)N1CCC2(CCN(C(=O)Nc3cccc(C#N)c3)CC2)CC1 reads -22%
For EPAC2 ant val, CN(C)c1ccc(/C=C/c2ccnc3c(O)ccc(O)c23)cc1 reads 20%
For EPAC2 ant val, COC(=O)[C@@H]1CCCN1C(=O)c1cc(NC(=O)C2CCC2)c2c(c1)nc(-c1ccncc1)n2C reads 3%
For EPAC2 ant val, COc1ccc(C(=O)N2CCC3(CC2)CN(C(=O)Nc2cccc(C#N)c2)C3)cc1 reads -16%

An excerpt from above in order of SMILES length, falling.
SMILES	EPAC2 ant val
CC(=O)O[C@H]1CC[C@@]2(C)C(=CC[C@H]3[C@@H]4CC[C@H](C(C)=O)[C@@]4(C)CC[C@@H]32)C1	-16%
COc1ccc(NC(=O)N2CC3(CCN(C(=O)c4c(C)noc4C)CC3)C2)cc1	-23%
Cc1ccccc1-c1cncnc1NCCN1CCOCC1	-17%

Carrying on.
SMILES	EPAC2 ant val
COc1ccc(Oc2ncc3nc(C)c(=O)n(C4CC4)c3n2)cc1	-17%
C/C=C(/C(=C/C)c1ccc(O)cc1)c1ccc(O)cc1	u
CC(=O)OC1CC[C@@]2(C)C3=CC(=O)[C@]4(C)C(CC5OC6(OCC(C)CC6Br)C(C)C54)C3CC[C@H]2C1 (some centres undefined)	-13%
COc1c2ccoc2c(OC)c2oc(=O)ccc12	u
[N-]=[N+]=NCC1OC(n2cnc3c(=O)[nH]c(N)nc32)C(O)C1O (centres undefined)	-7%
Cc1ncc2c(c1CNC(=O)c1ccsc1)CCN(C(=O)c1c(F)cccc1Cl)C2	-5%
CCCCCC(O)/C=C/C=O (centres undefined)	6%
COc1ccc(Oc2ncc3ncc(=O)n(C)c3n2)cc1	-15%
COc1cc(=O)n2c(c1C(=O)NC(C)c1ccco1)CCN(C(=O)c1ccc3c(c1)OCCO3)CC2 (centres undefined)	-9%
CC(=O)c1ccc(-c2cc(F)cc3c2OC(CNC(=O)Cc2cn4ccsc4n2)C3)s1 (centres undefined)	-14%
CNC(=O)C[C@@H](N)C(=O)N[C@@H](C(=O)N[C@@H]1C(=O)N2[C@@H]1SC(C)(C)[C@@H]2C(=O)O)c1ccc(O)cc1	11%
O=C(c1cc(C(F)(F)F)cc(C(F)(F)F)c1)N1CCC2(CCCN(Cc3ccncc3)C2)CC1	u
Cn1cc[nH]c1=S	-1%
CC(S)C(=O)NCC(=O)O (centres undefined)	-6%
C=C1C(=O)O[C@H]2[C@H]1CC/C(C)=C\CC[C@@]1(C)O[C@@H]21	22%

Looked up one by one from the list above (two):
SMILES	EPAC2 ant val
Cc1ccccc1-c1cncnc1NCCN1CCOCC1	-17%
COc1ccc(Oc2ncc3ncc(=O)n(C)c3n2)cc1	-15%

Continued.
SMILES	EPAC2 ant val
CCOC(=O)N1CCN(c2nc(CN3CCCCC3CCO)nc3c(C)cccc23)CC1 (centres undefined)	-3%
C#CCN(Cc1nc(N2CCOCC2)c2ccc(Cl)cc2n1)Cc1ccco1	50µM*
Cn1cc(CN2CCOc3ccc(C(O)C4CCCCC4)cc3C2)cn1 (centres undefined)	u
O=C(/C=C/c1cccc(F)c1)NC1CC1	29%
Nc1ccc(CCNc2ncnc3c2ncn3C2OC(CO)C(O)C2O)cc1 (centres undefined)	1%&-2%
COCCn1c(=O)c(-c2ccc(Cl)cc2)nc2cnc(OCc3ccccc3)nc21	-17%
Cc1noc(C)c1C(=O)N1CCC2(CCN(Cc3ccncc3)CC2)CC1	-28%
COc1ccc2c(c1)CCc1cnc(-n3ncc(C(=O)NCCCN4CCOCC4)c3C)nc1-2	10%
O=C(O)C[C@H]1c2ccccc2S(=O)(=O)N1c1ccccc1	22%
CCN(CC)CCOc1ccc(/C(=C(\Cl)c2ccccc2)c2ccccc2)cc1	3%&-9%
Cc1ccc(-c2nn(CC(C)(C)C)c3ncnc(N)c23)cc1	-16%
Cc1cc(C(=O)NCC2CCC3(CCN(Cc4cccc(F)c4F)CC3)O2)n(C)n1 (centres undefined)	-44%
COc1cc(=O)n2c(c1C(=O)N(C)Cc1cscn1)CCN(Cc1c(C)[nH]c3ccccc13)CC2	-22%
CC1=CC(=O)[C@@H]2C[C@H]1C2(C)C	-9%
c1ccc(-c2ccc(N3CC[C@@]4(CCCNC4)C3)cc2)cc1	-22%
Cc1ccccc1C(=O)N1CC/C(=N\OS(=O)(=O)O)c2ccc(Cl)cc21	9%
Nc1ccc(-c2nc3ccc(-c4nc5ccc(N)cc5[nH]4)cc3[nH]2)cc1	-22%
O=c1c(-c2ccc(Cl)cc2)nc2cncnc2n1Cc1ccc(F)cc1	-18%
Cc1noc(C)c1-c1ccc2ncnc(NCCN3CCOCC3)c2c1	-11%
CCCN(CCc1ccccc1)C1CCc2c(O)cccc2C1 (centres undefined)	8%&-10%
Cc1cccc(/C=C/c2cccs2)n1	-8%
CC(O)Cn1cnc2c1c(=O)n(C)c(=O)n2C (centres undefined)	1%[56.6 µM]
COCCn1c(=O)c(-c2cccs2)nc2cnc(OCc3ccccc3)nc21	-20%
Cc1cc(-n2c(=O)[nH]c(=O)n(C)c2=O)ccc1Oc1ccc(S(=O)(=O)C(F)(F)F)cc1	-1%
COc1ccccc1-c1ccc2ncnc(N3CCNCC3)c2c1	-14%
CS(=O)(=O)Nc1cccc(-c2nc(NCc3cccnc3)c3ccccc3n2)c1	-11%
COc1ccc(-n2c(=O)c(-c3cccc(Cl)c3)nc3cncnc32)cc1	-5%
C[C@H](NCCc1ccc(O)cc1)[C@H](O)c1ccc(O)cc1	0%
CC1=C(/C=C/C(C)=C/C=C/C(C)=C/C=C/C=C(C)/C=C/C=C(C)/C=C/C2=C(C)C[C@@H](O)CC2(C)C)C(C)(C)C[C@H](O)C1	28%
O=c1c(-c2cccs2)nc2cnc(Oc3cccc(Cl)c3)nc2n1C[C@H]1CCCO1	-17%
CC(=O)c1ccc(F)c(-c2cc(C)cc3c2OC(CNC(=O)C2CCCCN2C)C3)c1 (centres undefined)	-20%
COCC(=O)O[C@]1(CCN(C)CCCc2nc3ccccc3[nH]2)CCc2cc(F)ccc2[C@@H]1C(C)C	-5%&-26%
NCCCCNCCCN	-26%&-9%&-20%
COc1ccccc1-n1cc(CN2CCOc3ccc(CN4C[C@@H](C)O[C@@H](C)C4)cc3C2)cn1	1%
Brc1ccc2c(ccc[n+]2CCc2ccccc2)c1	4%
C[C@](O)(C(=O)Nc1ccc(S(=O)(=O)c2ccccc2)cc1)C(F)(F)F	-30%
CC1=C(/C=C/C(C)=C/C=C/C(C)=C\C(=O)O)C(C)(C)CCC1	1%
COc1cc(O)cc(/C=C/c2ccccc2)c1	u
O=C(c1ccco1)N1CCC2(CCCN(Cc3ccncc3)C2)CC1	-23%
C[C@H](CN1CCCC1)C(=O)c1ccc(C(F)(F)F)cc1	2%
OC(c1cccnc1)c1ccc2c(c1)CN(Cc1cccc3c1OCO3)CCO2 (centres undefined)	-11%
OC[C@H]1O[C@@H](n2cnc3c(NC4CCCC4)nc(Cl)nc32)[C@H](O)[C@@H]1O	-5%
O=c1c(-c2cccs2)nc2cnc(N3CCNCC3)nc2n1-c1ccccc1	17%
CC1CC[C@@]2(C(=O)O)CCC3(C)C(=CCC4[C@]5(C)CC(O)C(O)[C@](C)(CO)C5C(O)C[C@@]43C)C2C1C (some centres undefined)	-21%
C[N+]1(CC(=O)c2ccc(Cl)cc2)CCOCC1	u
CN1CCN(c2ncc3nc(CCc4ccccc4)c(=O)n(C4CC4)c3n2)CC1	-5%
O=C(c1cccc(F)c1)N1CCC2(CCCN(Cc3ccccc3)C2)CC1	-23%
C[C@@H]1CCC2[C@@H](C)[C@@H](O)O[C@@H]3O[C@@]4(C)CC[C@@H]1[C@@]23OO4 (some centres undefined)	u
CN1CCN(c2nc3cc(C(F)(F)F)ccc3n3cccc23)CC1	u
Nc1ccc(C(=O)NCC(=O)O)cc1	u
O=C(O)C(Oc1ccc2ccc(=O)oc2c1)c1ccccc1 (centres undefined)	7%
O=c1c(-c2ccc(Cl)cc2)nc2cnc(N3CCNCC3)nc2n1-c1ccccc1	-8%
CCNc1ncc2nc(CCc3ccccc3)c(=O)n(CCC#N)c2n1	16%
Cc1ccc(CN2CCOCCS2(=O)=O)cc1	-36%
COc1ccc(/C=c2\[nH]c(=O)/c(=C/c3ccc(OC)cc3)[nH]c2=O)cc1	u
C[C@@]12CC(=O)C3=C(CCCC3=O)N1CCc1ccccc12	10%
COc1cc2c(Nc3ccc(Br)cc3F)ncnc2cc1OCC1CCN(C)CC1	16%
CN(C)C(=O)c1ccc(-c2nccc(N(C)Cc3ccco3)n2)cc1	3%
COCCn1c(=O)c(-c2ccccc2)nc2cncnc21	20%
COc1ccccc1C1CN(Cc2c(O)cccc2OC)Cc2ccccc2O1 (centres undefined)	-3%

Rewritten with bars between the fields: part of the list above.
Structure | EPAC2 ant val
O=C(c1cc(C(F)(F)F)cc(C(F)(F)F)c1)N1CCC2(CCCN(Cc3ccncc3)C2)CC1 | u
Cn1cc[nH]c1=S | -1%
CC(S)C(=O)NCC(=O)O (centres undefined) | -6%

(listing goes on)
SMILES	EPAC2 ant val
O=C1[C@H]2[C@H](C=CC[C@H]2C(=O)N2CCN(c3ccccc3)CC2)CCN1Cc1ccccc1	u
O=C1c2ccccc2CN2C(=O)c3ccccc3CN12	26%
C(=C\c1ccncc1)/c1ccccc1	-9%&4%
CN1CCN(C2Cc3ccccc3Sc3ccc(Cl)cc32)CC1 (centres undefined)	u
O=C(Oc1ccccc1)c1ccccc1O	-5%
O=C(Oc1ccccc1)N1CCC[C@@]2(CCN(c3ccccn3)C2)C1	-18%
CCOc1ccccc1O[C@H](c1ccccc1)[C@H]1CNCCO1	-9%
COc1ccc(-n2c(=O)c(-c3cccs3)nc3cnc(Nc4cccc(OC)c4)nc32)cc1	28%
Cc1cnc(CNc2ncncc2-c2c(C)noc2C)cn1	-20%
O=C1CCC[C@@H]2Cc3nc4ccccc4cc3[C@@H]3CCN1[C@H]23	-29%
CC(C)=CCCC(C)CCO (centres undefined)	-27%
CC(=O)OC1CC2C(C)(C)CCC(=O)[C@@]2(C)C2CC[C@@]3(C)C(c4ccoc4)OC(=O)C4OC43[C@]12C (some centres undefined)	-11%
O=C(Nc1ccccc1)c1cc([N+](=O)[O-])ccc1Cl	-12%
OCCN1CCN(CCCN2c3ccccc3C=Cc3ccccc32)CC1	-4%&27%&-9%
O=C(O)C1=CCCNC1	u
CC1(O)/C=C\C=C(\CO)C2CC(C)(C)C2(O)CC1 (centres undefined)	23%
O=C(NC[C@@H]1CCCN2CCCC[C@H]12)c1cnn(-c2nccc(-c3ccco3)n2)c1C1CC1	-3%
CC(=O)Nc1ccc(-c2nc3ccc(Cl)cc3[nH]2)cc1	-12%
Cc1ccc(CNc2ncnc3sc(C(=O)N4CCC(N5CCCC(O)C5)CC4)c(C)c23)o1 (centres undefined)	-16%
CCOC(=O)c1cc(-c2ccccc2)nc2ccc(C)cc12	-24%
CNC(=O)[C@H]1O[C@@H](n2cnc3c(NCc4ccc(N)cc4)ncnc32)[C@H](O)[C@@H]1O	15%&-10%
O=c1c(-c2cccc(F)c2)nc2cncnc2n1Cc1ccc(F)cc1	-21%
c1ccc2c(N3CCOCC3)nc(-c3ccoc3)nc2c1	u
CS(=O)(=O)N1CCC2(CC1)CN(Cc1nccs1)C2	-18%
CCCCCCCCCCCCC/C=C/[C@@H](O)[C@H](CO)NC(=O)CCCCCCC	-29%[11.4 µM]
CC(=O)OC1CC2C(C)(C)C(=O)CC[C@]2(C)C2CC[C@@]3(C)C(c4ccoc4)OC(=O)C4OC43[C@]12C (some centres undefined)	-20%
O=C(NC(Cc1cc(=O)[nH]c2ccccc12)C(=O)O)c1ccc(Cl)cc1 (centres undefined)	-13%
C[C@H](NC(=O)OC(C)(C)C)[C@@H](O)c1ccco1	33%[activator]
COc1ccc(-c2nc3cnc(N4CCNCC4)nc3n(CCC#N)c2=O)cc1	-16%
CN(C)c1ccc(-c2nc(NCCc3cnc[nH]3)c3ccccc3n2)cc1	-18%
O=C(c1cnsn1)N1CCOc2ccc(CN3CCOCC3)cc2C1	-10%
Oc1ccc(Cl)cc1Cc1cc(Cl)ccc1O	89µM*!
O=C1C(Nc2ccccc2)=CC(=O)c2ncccc21	u

Assay outcomes: PubChem, National Center for Advancing Translational Sciences (NCATS)
